High-throughput results from PubChem BioAssay.
HIV Env fusion: inhibitors of HIV Env-mediated cell fusion | inhibition, % at 12.3 µM | HeLa-JRFL Env/CEM21 cell fusion, luciferase | 1.1% of 360,000 active;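 active = mean replicate inhibition score of at least 50 and every replicate individually at or above 50; inconclusive = only one of the two criteria met; inactive = mean below 50 and not all replicates reaching 50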;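 also: 0% = plate neutral controls and 100% = maraviroc near 300 nM; one replicate is shown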
* = called active by the depositor; ? = inconclusive; [ ] = remark or other dose. A portion of the library. The share of hits here may be higher or lower than overall.

| canonical_smiles | HIV Env fusion |
| --- | --- |
| CO[C@H]1CN(C)C(=O)c2ccc(NS(C)(=O)=O)cc2OC[C@@H](C)N(Cc2nccs2)C[C@@H]1C | -8[16.7 µM] |
| COc1cc(C(=O)O)ccc1OCc1ccccc1 | -13 |
| CO[C@H]1CN(C)C(=O)c2cc(NC(=O)NC3CCCCC3)ccc2OC[C@H](C)N(CCc2ccccc2)C[C@H]1C | 0[16.7 µM] |
| C[C@@H]1CCCCO[C@@H](CN(C)C(=O)c2ccncc2)[C@@H](C)CN([C@H](C)CO)C(=O)c2cc(NC(=O)c3ccccc3)ccc2O1 | 8[16.7 µM] |
| C[C@@H](O)C#Cc1cnc2c(c1)C(=O)N([C@@H](C)CO)C[C@H](C)[C@H](CN(C)CC1CCOCC1)O2 | -7[16.7 µM] |
| CCOc1cccc(C=NNc2nc(=O)cc(C(=O)OC)s2)c1O | 28 |
| CCCN(C)C[C@H]1OCCCC[C@@H](C)Oc2ccc(NC(=O)CCCN(C)C)cc2C(=O)N([C@@H](C)CO)C[C@@H]1C | -7[16.7 µM] |
| C[C@H]1CN([C@@H](C)CO)C(=O)c2cccc(NC(=O)C3CCCCC3)c2O[C@H]1CN(C)S(=O)(=O)c1cn(C)cn1 | -1[16.7 µM] |
| COC(=O)C[C@@H]1C[C@H]2c3cc(NC(=O)Nc4ccccc4F)ccc3O[C@H]2[C@@H](CO)O1 | 14 |
| CCN1[C@H](C(=O)NCc2cccc(OC)c2)[C@@H](CO)[C@@H]2Cn3c(ccc(C4=CCCC4)c3=O)[C@@H]21 | -8[16.7 µM] |
| C[C@H]1CN([C@@H](C)CO)C(=O)c2cc(-c3cccnc3)cnc2O[C@@H]1CN(C)Cc1ccccc1 | 10[16.7 µM] |
| O=C1CCCc2cnnn2COC[C@@H](c2ccccc2)N1 | -22[16.7 µM] |

3 of the entries above in order of the HIV Env fusion value, low to high:
| canonical_smiles | HIV Env fusion |
| --- | --- |
| COc1cc(C(=O)O)ccc1OCc1ccccc1 | -13 |
| COC(=O)C[C@@H]1C[C@H]2c3cc(NC(=O)Nc4ccccc4F)ccc3O[C@H]2[C@@H](CO)O1 | 14 |
| CCOc1cccc(C=NNc2nc(=O)cc(C(=O)OC)s2)c1O | 28 |

Additional records follow.
| canonical_smiles | HIV Env fusion |
| --- | --- |
| CO[C@@H](CN(C)Cc1cc(F)ccc1F)[C@@H](C)CN([C@H](C)CO)S(=O)(=O)c1ccc(F)cc1 | 17[16.7 µM] |
| CO[C@H]1CN(C)C(=O)c2ccc(NS(=O)(=O)c3ccc(Oc4ccccc4)cc3)cc2OC[C@@H](C)NC[C@@H]1C | 9[16.7 µM] |
| CCCNC(=O)N1CC2(CCN(C(=O)CC)CC2)c2c(n(C)c3cc(OC)ccc23)[C@@H]1CO | -8[16.7 µM] |
| C/C=C/c1ccccc1[C@@H]1[C@@H](CO)N(c2ncc(CC)s2)[C@H]1C#N | 8[16.7 µM] |
| C[C@H]1CN([C@@H](C)CO)C(=O)c2ccccc2-c2ccccc2CO[C@@H]1CN(C)C(=O)CCN(C)C | -18[16.7 µM] |
| CC(C)(C)[C@H]1C=C(C(=O)N2CCCC2)O[C@@H](OCc2ccc(CO)cc2)C1 | 9[16.7 µM] |
| COC(=O)C1=C(C)N(Cc2ccc(Cl)cc2)C(=S)NC1c1ccc(Cl)cc1 (stereo not given) | 61* |
| Cc1ccc(S(=O)(=O)Nc2ccc3c(c2)C(=O)N([C@H](C)CO)C[C@H](C)[C@@H](CN(C)C(=O)c2ccncc2)OCCCC[C@@H](C)O3)cc1 | -12[16.7 µM] |
| Cc1ccc2nc(-c3ccc(CN4CCC5(CC4)CNc4ccccc45)cc3)c(-c3ccccc3)nc2c1 | 12 |
| C[C@H](CO)N1C[C@H](C)[C@H](CN(C)S(=O)(=O)c2ccccc2C#N)OCc2ccccc2-c2ccccc2C1=O | 17[16.7 µM] |
| CO[C@@H]1CN(C)C(=O)c2cc(NS(C)(=O)=O)ccc2OC[C@H](C)N(CC2CCOCC2)C[C@H]1C | -2[16.7 µM] |
| C[C@@H](NC(=O)C[C@@H]1C[C@H]2c3cc(NS(=O)(=O)c4ccc(F)cc4)ccc3O[C@H]2[C@@H](CO)O1)c1ccccc1 | -20[16.7 µM] |
| NC(=O)c1ncn([C@@H]2O[C@H](C(=O)N[C@H](Cc3c[nH]c4ccccc34)C(=O)N3CCN(C(=O)N4CCCCC4)CC3)[C@@H](O)[C@H]2O)n1 | -11 |
| C[C@@H]1CN([C@@H](C)CO)C(=O)c2ccccc2-c2ccccc2CO[C@@H]1CN(C)Cc1ccc2c(c1)OCCN2C | -36[16.7 µM] |
| CCC(CC)CN1CCC(CN2C(=S)NC[C@@H]2Cc2ccccc2)CC1 | 30 |
| CC(C)NC(=O)N(C)C[C@@H]1OCCCC[C@H](C)Oc2ccc(NC(=O)CCCN(C)C)cc2C(=O)N([C@H](C)CO)C[C@@H]1C | 26[16.7 µM] |
| CCS(=O)(=O)Nc1ccc2c(c1)C(=O)N(C)[C@H]1CC[C@@H](CC(=O)NCc3ccccc3F)O[C@@H]1CO2 | -11[16.7 µM] |
| O=C(Nc1ccccc1)N[C@H]1CC[C@H](CCn2cc(-c3ccccc3F)nn2)O[C@H]1CO | -43[16.7 µM] |
| C[C@H]1CN([C@@H](C)CO)C(=O)c2cccc(NC(=O)Nc3ccccc3)c2O[C@H]1CN(C)S(=O)(=O)c1cccs1 | 14[16.7 µM] |
| C[C@@H]1CN([C@H](C)CO)C(=O)c2cccc(NC(=O)CCCCCC(=O)Nc3ccccc3N)c2O[C@H]1CN(C)S(=O)(=O)c1ccc(Cl)cc1 | 7[16.7 µM] |
| C[C@@H](NC(=O)C[C@H]1C[C@H]2c3cc(NS(=O)(=O)c4ccc(F)cc4)ccc3O[C@H]2[C@H](CO)O1)c1ccccc1 | -1[16.7 µM] |
| COc1ccccc1CNC(=O)C[C@@H]1C[C@@H]2c3cc(NC(=O)c4ccc5c(c4)OCO5)ccc3O[C@@H]2[C@@H](CO)O1 | -4[16.7 µM] |
| C[C@H](CO)N1C[C@H](C)[C@@H](CN(C)C(=O)Nc2ccccc2)OCCCC[C@H](C)Oc2ccc(NC(=O)Nc3ccccc3)cc2C1=O | -11[16.7 µM] |
| CO[C@H]1CN(C)C(=O)c2ccc(NC(=O)Nc3cc(F)ccc3F)cc2OC[C@@H](C)N(C)C[C@H]1C | 3[16.7 µM] |

A draw from above in order of molecular weight, falling.
| canonical_smiles | HIV Env fusion |
| --- | --- |
| CC(C)NC(=O)N(C)C[C@@H]1OCCCC[C@H](C)Oc2ccc(NC(=O)CCCN(C)C)cc2C(=O)N([C@H](C)CO)C[C@@H]1C | 26[16.7 µM] |
| COc1ccccc1CNC(=O)C[C@@H]1C[C@@H]2c3cc(NC(=O)c4ccc5c(c4)OCO5)ccc3O[C@@H]2[C@@H](CO)O1 | -4[16.7 µM] |
| O=C(Nc1ccccc1)N[C@H]1CC[C@H](CCn2cc(-c3ccccc3F)nn2)O[C@H]1CO | -43[16.7 µM] |

Later entries
| canonical_smiles | HIV Env fusion |
| --- | --- |
| CO[C@H]1CN(C)C(=O)c2cc(NC(=O)C3CC3)ccc2OC[C@H](C)N(CCc2ccccc2)C[C@@H]1C | 33[16.7 µM] |
| O=C(CCN1CCCCC1)NCC[C@@H]1CC[C@H](NS(=O)(=O)c2cccc(Cl)c2)[C@@H](CO)O1 | -25[16.7 µM] |
| CO[C@@H]1CN(C)C(=O)c2ccc(NS(C)(=O)=O)cc2OC[C@H](C)N(CC2CCCCC2)C[C@H]1C | -1[16.7 µM] |
| CCCNC(=O)C[C@@H]1CC[C@@H]2[C@H](COC[C@H](O)CN2C(=O)Nc2ccc(Cl)c(Cl)c2)O1 | 17[16.7 µM] |
| C[C@H](CO)N1C[C@H](C)[C@H](CN(C)C(=O)C2CCC2)Oc2ncc(-c3ccncc3)cc2C1=O | 4[16.7 µM] |
| O=C(Nc1ccccc1)[C@@H]1[C@@H](CO)[C@@H]2Cn3c(ccc(C4=CCCCC4)c3=O)[C@@H]2N1Cc1cocn1 | -11[16.7 µM] |
| C[C@H]1CN([C@@H](C)CO)C(=O)c2cc(-c3ccncc3)cnc2O[C@@H]1CN(C)C(=O)C1CCC1 | 6[16.7 µM] |
| CCCC(=O)Nc1ccc2c(c1)C(=O)N(C)C[C@@H](OC)[C@H](C)CN(C(=O)c1ccccn1)[C@@H](C)CO2 | -1[16.7 µM] |
| COC(=O)C1=C(C)N(Cc2ccc(C(F)(F)F)cc2)C(=NCc2ccc3c(c2)OCO3)NC1c1cccc(Cl)c1 (stereo not given) | 2 |
| COc1ccc(NC(=O)N(C)C[C@@H]2Oc3ccc(NS(=O)(=O)c4ccc(C)cc4)cc3C(=O)N([C@H](C)CO)C[C@H]2C)cc1 | 3[16.7 µM] |
| CO[C@H]1CN(C)C(=O)c2ccc(NC(=O)Nc3ccc4c(c3)OCO4)cc2OC[C@@H](C)NC[C@@H]1C | -12[16.7 µM] |
| CN1C(=O)c2cc(NC(=O)c3ccccc3F)ccc2OC[C@@H]2O[C@H](CC(=O)NCc3ccc4c(c3)OCO4)CC[C@H]21 | -1[16.7 µM] |
| COCCNC(=O)C[C@H]1CC[C@@H]2[C@H](COC[C@H](O)CN2C(=O)c2cc(Cl)cc(Cl)c2)O1 | 5[16.7 µM] |
| Cc1noc(C)c1NC(=O)Nc1ccc2c(c1)C(=O)N([C@@H](C)CO)C[C@H](C)[C@@H](CN(C)Cc1ccc(Cl)c(Cl)c1)O2 | 9[16.7 µM] |
| C[C@@H]1CCCCO[C@H](CN(C)Cc2ccncc2)[C@@H](C)CN([C@@H](C)CO)C(=O)c2cc(NC(=O)C3CCCCC3)ccc2O1 | -17[16.7 µM] |
| C[C@@H]1CN([C@H](C)CO)C(=O)Cc2cc(NC(=O)CCC(F)(F)F)ccc2O[C@@H]1CN(C)Cc1ccc2c(c1)OCO2 | 15[16.7 µM] |
| CO[C@@H]1CC[C@@H]2CCOc3c(C#N)cccc3C(=O)N(C)[C@@H](C)C(=O)N(C)C[C@@H]1O2 | 7[16.7 µM] |
| O=C(N[C@H](Cc1ccccc1)C(=O)N(CCC1=CCCCC1)CC1CC1)[C@H]1O[C@@H](n2ccc(=O)[nH]c2=O)[C@H](O)[C@@H]1O | 16 |
| C[C@@H]1CCCCO[C@H](CN(C)Cc2ccccc2)[C@H](C)CN([C@@H](C)CO)C(=O)c2cc(NC(=O)CCCN(C)C)ccc2O1 | -23[16.7 µM] |
| O=C(C[C@@H]1C[C@@H]2c3cc(NC(=O)C4CCC4)ccc3O[C@@H]2[C@@H](CO)O1)NCc1ccccn1 | ? |
| C=CCN=C1NC(c2cccc(F)c2)C(C(=O)OC)=C(C)N1C (stereo not given) | -3 |
| C[C@@H]1CN([C@@H](C)CO)S(=O)(=O)c2ccc(-c3ccc(F)cc3)cc2O[C@H]1CN(C)C(=O)Nc1ccc(F)cc1 | -38[16.7 µM] |
| O=C(C[C@H]1CC[C@H](NC(=O)c2cccc(F)c2)[C@H](CO)O1)NCCN1CCCC1 | 7[16.7 µM] |
| C[C@@H]1CN([C@H](C)CO)C(=O)CCCn2cc(nn2)CO[C@@H]1CN(C)C(=O)Oc1ccccc1 | 34[16.7 µM] |
| CC(C)(C)S(=O)(=O)N1Cc2cc(CO)ccc2[C@H]1CCO | 12 |
| COc1ccccc1NC(=O)N(C)C[C@H]1OCc2ccccc2-c2ccccc2C(=O)N([C@@H](C)CO)C[C@H]1C | 5[16.7 µM] |
| OCC[C@@H]1C[C@H](O)[C@@H](O)[C@@]2(OCCc3cc(C(F)(F)F)ccc32)O1 | -21 |
| CN1C(=O)c2cc(NS(=O)(=O)c3cccc(F)c3)ccc2OC[C@@H]2O[C@H](CC(=O)NCCN3CCCCC3)CC[C@H]21 | -12[16.7 µM] |
| CO[C@H]1CN(C)C(=O)c2cccc(C#N)c2OC[C@@H]2O[C@H](CC[C@H]2OC)CCN(C)C(=O)[C@@H]1C | -2[16.7 µM] |
| CCCNC(=O)[C@@H]1[C@@H](CO)[C@@H]2Cn3c(ccc(-c4cncnc4)c3=O)[C@H]1N2C(=O)Nc1ccccc1 | 27[16.7 µM] |
| C[C@H](CO)N1C[C@H](C)[C@@H](CN(C)Cc2ccc(C(=O)O)cc2)Oc2ccc(NS(=O)(=O)c3ccc(Cl)cc3)cc2CC1=O | 3[16.7 µM] |
| CC1(C)O[C@@H]2[C@H](O1)[C@@H](O)C[C@H]2n1cnc2c(Cl)ncnc21 | 2 |
| CC=Cc1ccc2n(c1=O)C[C@@H]1[C@@H](CO)[C@H](C(=O)NC3CCC3)[C@H]2N1C(=O)c1ccccn1 (mixture of isomers) | 12[16.7 µM] |
| C[C@@H]1CN([C@@H](C)CO)C(=O)c2cc(NC(=O)Cn3cnnn3)ccc2O[C@@H]1CN(C)Cc1ccc(C(F)(F)F)cc1 | 7[16.7 µM] |
| O=C(C[C@@H]1C=C[C@H](NC(=O)c2ccccc2)[C@@H](CO)O1)NCc1ccc(Oc2ccccc2)cc1 | 4[16.7 µM] |
| C[C@@H]1CN([C@@H](C)CO)C(=O)c2c(c3ccccc3n2C)-c2ccccc2CO[C@H]1CN(C)C(=O)N[C@H](C)c1ccccc1 | -12[16.7 µM] |
| Cc1cc2c(c(=O)o1)[C@@]1(C(=O)N(C)c3cc(Br)ccc31)C1=C(CCCC1=O)O2 | -31 |
| COC(=O)C1=C(C)N(Cc2ccccc2C(F)(F)F)C(=NCc2ccc(OC)cc2)NC1c1ccc(C(F)(F)F)cc1 (stereo not given) | 20 |
| C[C@@H]1CN([C@H](C)CO)C(=O)c2ccccc2-c2ccccc2CO[C@H]1CN(C)C(=O)Nc1cccc(C(F)(F)F)c1 | 35[16.7 µM] |
| COc1ccc(NC(=O)N[C@@H]2CC[C@@H](CC(=O)NC3CCC3)O[C@H]2CO)cc1 | -6[16.7 µM] |
| CN(C)c1ccc2c(c1)[C@@H]1C[C@@H](CC(=O)NCCc3ccccc3)O[C@@H](CO)[C@@H]1O2 | 7[16.7 µM] |
| COC(=O)C1=C(C)N(C)C(=NCc2ccccc2C(F)(F)F)NC1c1cccc(F)c1 (stereo not given) | -121 |
| CO[C@H]1CN(C)C(=O)c2ccc(NC(=O)C3CCOCC3)cc2OC[C@@H](C)N(C)C[C@@H]1C | -4[16.7 µM] |
| O=C(C[C@@H]1C[C@@H]2c3cc(NC(=O)Nc4ccc(C(F)(F)F)cc4)ccc3O[C@@H]2[C@@H](CO)O1)NCc1ccc(Cl)cc1 | 10[16.7 µM] |
